rRNA inh HTS: inhibits bacterial ribosomal RNA function over humanized ribosomes. actives 1.6% (n = 350,000). AID 720706. GFP signal change (wild-type ribosome), % (test concentration not listed). E. coli WT GFP vs humanized-ribosome RFP mutants, fluorescence, 24 h; active compounds read low; DMSO median 0, no signal -100;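 active = significant combined selectivity score with lowered wild-type GFP, culture density cut under 30%, mutant RFP and density less affected; inactive = any of these conditions unmet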; also: one replicate is shown; some compounds called inactive have numbers as strong as hits
rRNA inh HTS OD600: second read-out of rRNA inh HTS, no call of its own (marks repeat the call); OD600 change, %; measured here: OD600 growth;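 optical density of the mix in the first replicate; 0 = DMSO median and -100 = no signal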
rRNA inh HTS RFP: second read-out of rRNA inh HTS, no call of its own (marks repeat the call); RFP signal change, %; measured here: RFP humanized mutant strains;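 first replicate; 0 = DMSO median and -100 = no signal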
Numbers without * were called inactive.

entry	SMILES	rRNA inh HTS	rRNA inh HTS OD600	rRNA inh HTS RFP
1	COc1ccccc1S(=O)(=O)N(C)C[C@@H]1OCc2ccccc2-c2ccccc2C(=O)N([C@H](C)CO)C[C@@H]1C	0	2	-0.6
2	COc1cccc(NC(=O)N(C)C[C@@H]2OCc3cnnn3CCCC(=O)N([C@@H](C)CO)C[C@@H]2C)c1	2	-5	0.1
3	CCCNC(=O)N1[C@H](CO)[C@@H](c2ccc(C3=CCCC3)cc2)[C@@H]1CNC(C)=O	-8	-6	1.7
4	COc1ccccc1-c1ccc2n(c1=O)C[C@H]1[C@H](CO)[C@@H](C(=O)Nc3nccs3)N(C)[C@@H]21	-3	0	-1.3
5	O=C1CN(S(=O)(=O)c2cccc(F)c2)C[C@@H]2[C@H](c3ccc(-c4ccccc4)cc3)[C@H](CO)N12	6	9	8.8
6	COc1ccc(CN(C)C[C@@H]2OCCCC[C@@H](C)Oc3ccc(NS(=O)(=O)c4ccc(C)cc4)cc3C(=O)N([C@H](C)CO)C[C@H]2C)cc1	2	-9	19
7	COc1ccccc1-c1ccc2c(c1)O[C@@H](CN(C)CC1CCCC1)[C@H](C)CN([C@@H](C)CO)S2(=O)=O	-5	-12	12
8	O=S(=O)(Cc1ccccc1)N1CC2(C1)[C@@H](c1ccccc1)[C@H](CO)N2CC1CC1	-3	-6	3.1
9	Cc1ccc(-c2csc(C(O)c3ccc(F)cc3)n2)cc1C (stereo unspecified)	-63	-79	-17
10	Cc1noc(C)c1NC(=O)N(C)C[C@@H]1Oc2ccc(NC(=O)Nc3ccc(C(F)(F)F)cc3)cc2C(=O)N([C@@H](C)CO)C[C@H]1C	0	5	-1.4
11	CCS(=O)(=O)Nc1ccc2c(c1)C(=O)N(C)C[C@@H](OC)[C@@H](C)CN(C(=O)NC(C)C)[C@H](C)CO2	2	4	-2.6
12	COCC(=O)Nc1ccc2c(c1)C(=O)N(C)C[C@H](OC)[C@H](C)CN(CC1CC1)[C@H](C)CO2	1	1	-1.3
13	CCN1[C@@H]2Cn3c(ccc(C4=CCCCC4)c3=O)[C@H]1[C@@H](C(=O)NCCOC)[C@@H]2CO	5	11	-5.2
14	O=C(c1cccnc1)N1CC(=O)N2[C@@H](CO)[C@@H](c3ccc(-c4cccnc4)cc3)[C@@H]2C1	1	27	-1.6
15	O=C(NC1CCCC1)N1CC2(C1)[C@H](c1ccccc1)[C@H](CO)N2CC1CC1	2	-2	-0.5
16	CN1CCN(C(=O)[C@H]2[C@H](CO)[C@H]3Cn4c(ccc(/C=C/c5ccccc5)c4=O)[C@H]3N2CC2CC2)CC1	-2	-9	4.9
17	CO[C@@H](CN(C)S(=O)(=O)c1ccc(C)cc1)[C@@H](C)CN([C@@H](C)CO)S(=O)(=O)c1cccc(Cl)c1	-19	-49	20
18	Cc1ccc(S(=O)(=O)N[C@H]2C=C[C@@H](CC(=O)NCc3ccc(Cl)c(Cl)c3)O[C@@H]2CO)cc1	-2	8	-0.6
19	C[C@@H]1CN([C@@H](C)CO)C(=O)c2cc(NC(=O)Nc3ccc(F)cc3)ccc2O[C@@H]1CN(C)C(=O)Nc1ccc(F)cc1	-9	-16	8.6
20	O=C(Cc1ccccc1)N1CC[C@H]2[C@H](CO)Nc3ccc(-c4cccc(F)c4)cc3[C@H]21	-35	-69	-4.8
21	COc1ccccc1C(=O)Nc1ccc2c(c1)OC[C@@H](C)N(CC1CC1)C[C@@H](C)[C@H](OC)CN(C)C2=O	-4	1	0.6
22	C[C@@H]1CN([C@@H](C)CO)C(=O)Cc2cc(NS(=O)(=O)c3ccc(F)cc3)ccc2O[C@H]1CN(C)Cc1ccc(-c2ccccc2)cc1	4	11	2.6
23	O=C(N[C@@H]1CC[C@@H](CCNC(=O)C2CCCCC2)O[C@H]1CO)c1ccccn1	-2	-1	-0.3
24	C[C@H]1CN([C@@H](C)CO)C(=O)c2cc(-c3ccc(C#N)cc3)cnc2O[C@@H]1CN(C)C(=O)CN(C)C	0	8	-1.0
25	C[C@H](CO)N1C[C@H](C)[C@H](CN(C)C(=O)c2cccnc2)Oc2cc(/C=C/c3ccccc3)ccc2S1(=O)=O	-6	-13	-3.0
26	COc1cccc(C(=O)Nc2ccc3c(c2)OC[C@H](C)N(C(C)=O)C[C@H](C)[C@H](OC)CN(C)C3=O)c1	-3	-4	-0.4
27	Cc1ccc(Cc2c(C3CCCCC3)nc3c(C)cc(Br)cn23)cc1	8	3	19
28	O=C(Nc1ccccc1)N1C[C@@H]2[C@H](c3ccccc31)[C@H](CO)N2Cc1cocn1	1	1	-2.6
29	COc1cccc(-c2cnc3c(c2)C(=O)N([C@H](C)CO)C[C@H](C)[C@@H](CN(C)Cc2ccccc2)O3)c1	-4	-5	1.5
30	COCCNC(=O)C[C@@H]1CC[C@H](NC(=O)NC2CCCC2)[C@@H](CO)O1	1	8	-0.6
31	COc1ccc(CN(C)C[C@@H]2Oc3c(NS(=O)(=O)c4ccccc4)cccc3C(=O)N([C@H](C)CO)C[C@H]2C)cc1	1	3	-2.0
32	COc1ccc(S(=O)(=O)N(C)C[C@H]2Oc3ccc(NC(=O)CCC(F)(F)F)cc3CC(=O)N([C@@H](C)CO)C[C@@H]2C)cc1	-1	-1	2.4
33	CN1C(=O)c2cc(NC(=O)C3CCC3)ccc2OC[C@H]2O[C@H](CC(=O)NCC3CCCCC3)CC[C@H]21	2	8	1.0
34	C[C@H]1CN([C@@H](C)CO)C(=O)c2cccc(NS(=O)(=O)c3ccc(Cl)cc3)c2O[C@H]1CN(C)Cc1ccccc1	2	-1	0.9
35	O=C(C[C@@H]1CC[C@H]2NC[C@@H](O)COC[C@@H]2O1)NCc1ccc(Oc2ccccc2)cc1	6	16	1.3
36	CN(Cc1ccccc1)C(=O)[C@@H]1CCCN1C(=O)[C@@H]1CCCN1C(=O)c1cccc2ccccc12	-3	2	3.4
37	O=C(Nc1ccccc1)Nc1ccc2c(c1)[C@H]1C[C@H](CC(=O)N3CCCCC3)O[C@@H](CO)[C@H]1O2	-1	10	-0.9
38	CO[C@H]1CN(C)C(=O)c2cc(NC(=O)C3CCCCC3)ccc2OC[C@@H](C)N(C(=O)c2ccccc2)C[C@@H]1C	-1	3	-0.3
39	C[C@H](CO)N1C[C@H](C)[C@H](CN(C)C(=O)C2CCC2)Oc2ncc(C#CC3CCCC3)cc2C1=O	8	3	0.9
40	Cc1ccc2nc(-c3cccc(Cl)c3)c(Cc3ccccc3C(F)(F)F)n2c1	17	15	2.9
41	Cc1cc(C(=O)Nc2cccc3c2O[C@H](CN(C)Cc2ccccc2)[C@@H](C)CN([C@H](C)CO)C3=O)n(C)n1	-4	0	-3.3
42	Cc1nn(C)cc1NC(=O)C[C@@H]1CC[C@@H]2[C@H](COc3ccc(NC(=O)C4CCC4)cc3C(=O)N2C)O1	1	8	-1.6
43	COc1cc(CNC(=O)c2cc(-c3cc(Cl)ccc3C)n[nH]2)cc(OC)c1	-9	-40	0.4
44	COc1ccc(NC(=O)Nc2ccc3c(c2)C(=O)N([C@@H](C)CO)C[C@@H](C)[C@H](CN(C)C(=O)NC(C)C)OCCCC[C@H](C)O3)cc1	1	-2	-0.4
45	CC(C)CN(C(=O)C1=COCCO1)c1c(N)n(Cc2ccccc2)c(=O)[nH]c1=O	12	19	4.6
46	CCCc1cn(CC[C@H]2CC[C@@H](NS(=O)(=O)c3ccccc3Cl)[C@H](CO)O2)nn1	4	-3	-1.7
47	N[C@@H]1CC[C@@H](CCn2cc(C3CCCCC3)nn2)O[C@H]1CO	6	3	-0.1
48	C[C@@H]1CN([C@H](C)CO)C(=O)Cc2cc(NC(=O)CCCCCC(=O)Nc3ccccc3N)ccc2O[C@H]1CN(C)C(=O)Nc1ccc(F)cc1	3	5	-4.6
49	O=C(C[C@@H]1C[C@H]2c3cc(NC(=O)c4ccc5c(c4)OCO5)ccc3O[C@H]2[C@H](CO)O1)NC1CCCCC1	-14	-28	0.8
50	COc1cccc(C(NC(C)=O)c2nc(-c3ccc(N(C)C)cc3)cs2)c1 (stereo unspecified)	-6	-9	-0.4
51	COc1ccc(CN(C)C[C@H]2Oc3c(NC(=O)Nc4ccc5c(c4)OCO5)cccc3C(=O)N([C@H](C)CO)C[C@H]2C)cc1	1	-3	-1.6
52	COc1ccc(NC(=O)Nc2ccc3c(c2)CC(=O)N([C@@H](C)CO)C[C@H](C)[C@@H](CN(C)Cc2ccc(C(F)(F)F)cc2)O3)cc1	4	5	2.1
53	Cc1ccc(S(=O)(=O)N2CCCCC2)cc1NC(=O)COC(=O)C1CC1	-2	-4	-1.9
54	O=C(C[C@H]1C=C[C@@H](NC(=O)CCN2CCCCC2)[C@H](CO)O1)Nc1ccc(-c2ccccc2)cc1	-3	-7	0.0
55	C[C@@H]1CN([C@@H](C)CO)C(=O)Cc2cc(NS(C)(=O)=O)ccc2O[C@H]1CN(C)S(C)(=O)=O	3	3	1.3
56	COc1ccc2c3c([nH]c2c1)[C@@H](CO)N(Cc1ccc(F)cc1)CC31CCN(C(=O)NC(C)C)CC1	3	2	-0.8
57	CCC(=O)N(C)C[C@H]1Oc2cc(C#CC3(O)CCCC3)ccc2S(=O)(=O)N([C@@H](C)CO)C[C@@H]1C	-1	13	-3.3
58	COc1ccc(CN2CC[C@@H]3CN(C(C)=O)[C@H](c4ccccc4Br)C[C@@H]32)cc1	9	8	8.6
59	CCCC(=O)N1CCC2(CC1)CN(C(=O)Nc1ccc(F)cc1)[C@H](CO)c1c2c2ccc(OC)cc2n1C	0	-8	17
60	Cc1ccc(S(=O)(=O)N(C)C[C@@H]2Oc3ccc(NC(=O)NC4CCCCC4)cc3CC(=O)N([C@@H](C)CO)C[C@H]2C)cc1	-5	-9	1.9

A draw from above in order of SMILES length, low to high.
entry	SMILES	rRNA inh HTS	rRNA inh HTS OD600	rRNA inh HTS RFP
47	N[C@@H]1CC[C@@H](CCn2cc(C3CCCCC3)nn2)O[C@H]1CO	6	3	-0.1
50	COc1cccc(C(NC(C)=O)c2nc(-c3ccc(N(C)C)cc3)cs2)c1 (stereo unspecified)	-6	-9	-0.4
43	COc1cc(CNC(=O)c2cc(-c3cc(Cl)ccc3C)n[nH]2)cc(OC)c1	-9	-40	0.4
45	CC(C)CN(C(=O)C1=COCCO1)c1c(N)n(Cc2ccccc2)c(=O)[nH]c1=O	12	19	4.6
58	COc1ccc(CN2CC[C@@H]3CN(C(C)=O)[C@H](c4ccccc4Br)C[C@@H]32)cc1	9	8	8.6
46	CCCc1cn(CC[C@H]2CC[C@@H](NS(=O)(=O)c3ccccc3Cl)[C@H](CO)O2)nn1	4	-3	-1.7
55	C[C@@H]1CN([C@@H](C)CO)C(=O)Cc2cc(NS(C)(=O)=O)ccc2O[C@H]1CN(C)S(C)(=O)=O	3	3	1.3
57	CCC(=O)N(C)C[C@H]1Oc2cc(C#CC3(O)CCCC3)ccc2S(=O)(=O)N([C@@H](C)CO)C[C@@H]1C	-1	13	-3.3
42	Cc1nn(C)cc1NC(=O)C[C@@H]1CC[C@@H]2[C@H](COc3ccc(NC(=O)C4CCC4)cc3C(=O)N2C)O1	1	8	-1.6
41	Cc1cc(C(=O)Nc2cccc3c2O[C@H](CN(C)Cc2ccccc2)[C@@H](C)CN([C@H](C)CO)C3=O)n(C)n1	-4	0	-3.3
51	COc1ccc(CN(C)C[C@H]2Oc3c(NC(=O)Nc4ccc5c(c4)OCO5)cccc3C(=O)N([C@H](C)CO)C[C@H]2C)cc1	1	-3	-1.6
60	Cc1ccc(S(=O)(=O)N(C)C[C@@H]2Oc3ccc(NC(=O)NC4CCCCC4)cc3CC(=O)N([C@@H](C)CO)C[C@H]2C)cc1	-5	-9	1.9
52	COc1ccc(NC(=O)Nc2ccc3c(c2)CC(=O)N([C@@H](C)CO)C[C@H](C)[C@@H](CN(C)Cc2ccc(C(F)(F)F)cc2)O3)cc1	4	5	2.1

(more compounds)
entry	SMILES	rRNA inh HTS	rRNA inh HTS OD600	rRNA inh HTS RFP
61	C[C@H]1CN([C@@H](C)CO)C(=O)c2cc(NC(=O)Cc3cn(C)c4ccccc34)ccc2O[C@@H]1CN(C)S(=O)(=O)c1ccccc1	-4	4	0.7
62	CCCN1[C@@H]2c3ccc(-c4ccc(OC)cc4)c(=O)n3C[C@H]1[C@H](CO)[C@H]2C(=O)NCC	0	-12	-0.2
63	CCC(=O)N(C)C[C@H]1Oc2ncc(C#Cc3ccncc3)cc2C(=O)N([C@H](C)CO)C[C@@H]1C	5	3	-0.2
64	C[C@@H](O)C#Cc1ccc2c(c1)O[C@H](CN(C)Cc1ccccn1)[C@@H](C)CN([C@@H](C)CO)S2(=O)=O	-7	1	-2.0

Ordered by the number under rRNA inh HTS RFP (high to low): some entries from above.
entry	SMILES	rRNA inh HTS	rRNA inh HTS OD600	rRNA inh HTS RFP
61	C[C@H]1CN([C@@H](C)CO)C(=O)c2cc(NC(=O)Cc3cn(C)c4ccccc34)ccc2O[C@@H]1CN(C)S(=O)(=O)c1ccccc1	-4	4	0.7
63	CCC(=O)N(C)C[C@H]1Oc2ncc(C#Cc3ccncc3)cc2C(=O)N([C@H](C)CO)C[C@@H]1C	5	3	-0.2
64	C[C@@H](O)C#Cc1ccc2c(c1)O[C@H](CN(C)Cc1ccccn1)[C@@H](C)CN([C@@H](C)CO)S2(=O)=O	-7	1	-2.0

Screens deposited in PubChem BioAssay by Broad Institute.

This is a subset, so the mix of outcomes need not match the whole.
